# Source: PubChem BioAssay (Broad Institute)
# AF4-AF9 inh: inhibitors of human MLL-AF4/AF9 interaction. AlphaScreen, biotin-AF4 peptide binding to FLAG-AF9. inhibition, % at 10 µM. hit rate 0.47% among 350,000. P42568. AID 651704;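 active means every replicate reaching a set inhibition limit, whatever the replicate mean, cut at about 25% in these data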;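 further: 0% = plate neutral control median and 100% = total signal loss; the record names both 10 and 1 µM as test concentration; the first replicate is given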
# Target sequence (P42568 whole entry, looked up): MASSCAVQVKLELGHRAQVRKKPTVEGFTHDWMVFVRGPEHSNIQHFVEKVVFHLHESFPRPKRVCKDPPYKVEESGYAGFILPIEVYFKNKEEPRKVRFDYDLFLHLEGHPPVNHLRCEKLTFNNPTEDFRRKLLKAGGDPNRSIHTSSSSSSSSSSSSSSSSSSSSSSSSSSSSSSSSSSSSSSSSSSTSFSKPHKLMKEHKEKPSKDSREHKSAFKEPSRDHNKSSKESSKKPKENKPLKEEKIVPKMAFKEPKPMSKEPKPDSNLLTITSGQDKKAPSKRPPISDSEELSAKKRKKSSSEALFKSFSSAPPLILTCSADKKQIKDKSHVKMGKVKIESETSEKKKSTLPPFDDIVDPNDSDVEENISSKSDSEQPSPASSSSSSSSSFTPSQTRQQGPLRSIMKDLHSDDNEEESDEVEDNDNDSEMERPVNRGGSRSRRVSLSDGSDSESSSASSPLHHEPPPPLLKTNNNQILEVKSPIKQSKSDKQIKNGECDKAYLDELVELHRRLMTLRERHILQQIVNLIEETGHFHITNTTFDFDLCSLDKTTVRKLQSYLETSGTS
# Ecoli rRNA inh: inhibitors of bacterial rRNA selective over humanized ribosomes; AID 720706; hit rate 1.6% among 350,000; E. coli WT GFP vs humanized-ribosome RFP mutants, fluorescence, 24 h; active compounds read low; DMSO median 0, no signal -100; GFP signal change (wild-type ribosome), % (test concentration not listed);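 active means significant combined selectivity score with lowered wild-type GFP, culture density cut under 30%, mutant RFP and density less affected; inactive means any of these conditions unmet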; further: one replicate is shown; some compounds called inactive have numbers as strong as hits
# FGF22 binding: FGF22 (human) thermal shift binding; recombinant FGF22 thermal shift, SYPRO orange fluorescence; percent of sucrose octasulfate shift, DMSO zero; AID 651658; calls only at 9.99 µM; hit rate 1.5% among 340,000; Q9HCT0;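 active means melting point raised past a set limit in the mean and every replicate; three in four hits are not shown here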
# Target sequence (Q9HCT0 whole entry, looked up): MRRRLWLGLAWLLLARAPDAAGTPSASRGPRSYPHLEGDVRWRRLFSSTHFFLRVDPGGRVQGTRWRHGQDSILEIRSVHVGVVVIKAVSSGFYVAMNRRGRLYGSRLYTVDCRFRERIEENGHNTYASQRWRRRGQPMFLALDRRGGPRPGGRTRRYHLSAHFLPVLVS
# Ecoli rRNA inh OD600: also measured in Ecoli rRNA inh; calls as there; OD600 change, %; measured here: OD600 growth;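 optical density of the mix in the first replicate; 0 = DMSO median and -100 = no signal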
# Ecoli rRNA inh RFP: also measured in Ecoli rRNA inh; calls as there; RFP signal change, %; measured here: RFP humanized mutant strains;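 first replicate; 0 = DMSO median and -100 = no signal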
# Starred values were filed as active, the others as inactive; i = inactive; & = joins results of further samples.
SMILES,AF4-AF9 inh,Ecoli rRNA inh,Ecoli rRNA inh OD600,Ecoli rRNA inh RFP,FGF22 binding
C[C@@H]1CN([C@H](C)CO)C(=O)c2cccc(NC(=O)C3CCCCC3)c2O[C@H]1CN(C)S(=O)(=O)c1cccs1,-0.3,-2.8,-6.6,-2.3,i
C[C@H](CO)N1C[C@H](C)[C@H](CN(C)C(=O)C2CCC2)Oc2cc(C3=CCCCC3)ccc2S1(=O)=O,4.2,-19.9,-47.9,17.4,i
Cc1noc(C)c1S(=O)(=O)N(C)C[C@@H]1OCc2cn(nn2)CCCC(=O)N([C@H](C)CO)C[C@H]1C,-7.0&0.3,8.0&2.5,13.9&4.4,-3.9&-1.8,i
CC(C)CC#Cc1ccc2c(c1)O[C@@H](CN(C)S(C)(=O)=O)[C@@H](C)CN([C@H](C)CO)S2(=O)=O,2.9,-5.5,-8.2,0.5,i
C[C@@H](NC(=O)C[C@@H]1CC[C@H](NC(=O)C2CCC2)[C@@H](CO)O1)c1ccccc1,-0.8,1.3,-0.2,-3.1,i
COC(=O)[C@]12C[C@H](CC(=O)N3CCC(c4ccccc4)CC3)C(=O)N(CCc3ccc(OC)c(OC)c3)C1=C[C@H](C(C)(C)C)O[C@@H]2C,4.1,16.1,0.4,-0.5,i
C[C@@H]1CN([C@H](C)CO)C(=O)c2cc(NC(=O)Cc3ccccc3)ccc2O[C@@H](C)CCCCO[C@@H]1CN(C)S(=O)(=O)c1ccc(Cl)cc1,-2.6,-0.7,3.6,1.4,i
Cc1cccc(C)c1NC(=O)C(CCc1ccccc1)n1c(=O)c(-c2cc3ccccc3[nH]2)nc2ccccc21 (centres undefined),-23.5,9.0,7.9,8.0,i
CO[C@@H]1CN(C)C(=O)c2cc(NC(=O)Nc3ccc4c(c3)OCO4)ccc2OC[C@@H](C)NC[C@@H]1C,5.4,4.3,10.8,-0.5,i
N#C[C@H]1[C@H](c2ccccc2C2=CCCCC2)[C@@H](CO)N1C(=O)NC1CCCC1,-0.4,-34.5,-68.5,-0.9,i
C[C@H]1CN([C@@H](C)CO)S(=O)(=O)c2ccc(Br)cc2O[C@H]1CN(C)Cc1ccncc1,-1.4,-5.6,-4.4,0.1,i
O=S(=O)(c1ccc(F)cc1)N1CCCCN2[C@H](C1)[C@H](c1ccc(-c3ccccc3)cc1)[C@@H]2CO,-8.4,-0.4,7.1,0.0,i
COC(=O)C1=C(C)N(C)C(=NCC2CC2)NC1c1cccc(F)c1 (centres undefined),1.9,21.8,19.6,2.1,i
CC(=O)N(C)C[C@@H]1OCc2ccccc2-c2c(n(C)c3ccccc23)C(=O)N([C@H](C)CO)C[C@@H]1C,-3.8,-2.0,5.3,-3.9,i
COC(=O)[C@@]12C[C@@H](CC(=O)NCCCCc3ccccc3)C(=O)N(Cc3cccc4ccccc34)C1=CCC(C)(C)C2,-0.7,27.6,15.0,4.1,i
CCCNC(=O)C[C@H]1C[C@@H]2c3cc(NC(=O)CC4CC4)ccc3O[C@@H]2[C@H](CO)O1,-1.3,1.7,11.2,-2.7,i
C[C@@H]1CN([C@H](C)CO)C(=O)c2cccc(NC(=O)c3ccc(-c4nccs4)cc3)c2O[C@@H]1CN(C)C,-0.5,0.7,1.9,-1.4,i
C[C@@H]1CN([C@@H](C)CO)C(=O)c2cc(C3=CCCC3)cnc2O[C@H]1CN(C)C(=O)c1ccncc1,-2.2,-0.7,-4.0,-1.4,i
Cc1ccc(-c2ccc3c(c2)O[C@@H](CN(C)CC2CC2)[C@@H](C)CN([C@H](C)CO)S3(=O)=O)cc1,7.7,1.3,1.0,4.3,i
Cc1noc(C)c1S(=O)(=O)Nc1ccc2c(c1)C(=O)N([C@H](C)CO)C[C@@H](C)[C@@H](CN(C)Cc1ccc(C(=O)O)cc1)O2,-2.2,3.3,13.8,-2.3,i

# Record cards (already shown).
# Profile of C[C@H](CO)N1C[C@H](C)[C@H](CN(C)C(=O)C2CCC2)Oc2cc(C3=CCCCC3)ccc2S1(=O)=O : AF4-AF9 inh = 4.2; Ecoli rRNA inh = -19.9; Ecoli rRNA inh OD600 = -47.9; Ecoli rRNA inh RFP = 17.4; FGF22 binding = i
# Profile of C[C@@H]1CN([C@@H](C)CO)C(=O)c2cc(C3=CCCC3)cnc2O[C@H]1CN(C)C(=O)c1ccncc1 : AF4-AF9 inh = -2.2; Ecoli rRNA inh = -0.7; Ecoli rRNA inh OD600 = -4.0; Ecoli rRNA inh RFP = -1.4; FGF22 binding = i

# Continuation:
SMILES,AF4-AF9 inh,Ecoli rRNA inh,Ecoli rRNA inh OD600,Ecoli rRNA inh RFP,FGF22 binding
O=C(C[C@H]1C=C[C@@H](NC(=O)NC2CCCCC2)[C@H](CO)O1)NCc1ccc(F)cc1,-4.1,0.4,-3.7,-1.2,i
CN(C)C(=O)[C@H]1[C@H](CO)[C@H]2Cn3c(ccc(-c4cccc(F)c4)c3=O)[C@@H]1N2CCc1ccccc1,-0.1,-4.8,0.8,-0.8,i
C[C@@H]1CN([C@@H](C)CO)C(=O)Cc2cc(NS(=O)(=O)c3cn(C)cn3)ccc2O[C@@H]1CN(C)C(=O)Nc1ccc(F)cc1,-2.5,-1.4,-0.5,-0.2,i
CNC[C@@H]1Oc2ccc(NS(=O)(=O)c3ccccc3)cc2CC(=O)N([C@H](C)CO)C[C@H]1C,-1.7,-0.7,-2.6,0.6,i
O=C(C[C@@H]1C=C[C@@H](NC(=O)C2CC2)[C@@H](CO)O1)NCC1CC1,1.5,4.3,3.1,-2.5,i
C[C@H](NC(=O)C[C@@H]1CC[C@H](NC(=O)Cc2ccccn2)[C@H](CO)O1)c1ccccc1,-1.0,1.7,-0.7,-0.4,i
Cc1cc(C(=O)Nc2cccc3c2O[C@H](CN(C)C(=O)Nc2ccc(C(F)(F)F)cc2)[C@@H](C)CN([C@@H](C)CO)C3=O)n(C)n1,-0.9,-4.9,5.7,-0.3,i
C[C@@H]1CCCCO[C@@H](CN(C)Cc2ccc(C(=O)O)cc2)[C@@H](C)CN([C@H](C)CO)C(=O)c2cc(NS(=O)(=O)c3ccc(Cl)cc3)ccc2O1,-2.7,2.9,7.4,-3.1,i
C[C@H]1CN(c2ccc(Br)cc2)C(=O)[C@@H]1CC(=O)Nc1ccccc1,-6.9,-6.3,-22.1,-10.7,i
Cc1ccc(OCCC(=O)NNC(=O)c2ccncc2)cc1,-0.1,23.2,6.2,1.9,i
C[C@H]1CN([C@@H](C)CO)C(=O)Cc2cc(NC(=O)Nc3ccc(F)cc3)ccc2O[C@H]1CN(C)Cc1ccccc1,-1.9,1.9,-34.4,5.2,i
C[C@H]1CN([C@@H](C)CO)C(=O)Cc2cc(NC(=O)CCCCCC(=O)Nc3ccccc3N)ccc2O[C@H]1CN(C)S(=O)(=O)c1ccc(F)cc1,0.4,-1.4,-1.9,1.2,i
CO[C@@H]1CN(C)C(=O)c2cc(NC(=O)C3CC3)ccc2OC[C@H](C)N(C(=O)C2CCOCC2)C[C@@H]1C,1.0,2.6,9.4,-1.4,i
C[C@H]1CN([C@@H](C)CO)C(=O)c2cccc(NC(=O)Nc3ccc(F)cc3)c2O[C@@H]1CN(C)Cc1ccncc1,-0.1,-4.2,-6.9,0.1,i
COC(=O)[C@@]12C[C@@H](CC(=O)NCCCN3CCCC3=O)C(=O)N(CCc3ccc(OC)c(OC)c3)C1=CCC(C)(C)C2,-2.0,-15.2,-10.6,-8.4,i
COc1ccccc1C#Cc1cnc2c(c1)C(=O)N([C@H](C)CO)C[C@@H](C)[C@H](CN(C)C(=O)CN(C)C)O2,15.4,3.9,4.6,-2.3,i
CO[C@H]1CC[C@H]2CCN(C)C(=O)[C@H](C)CN(C)C(=O)c3cc(C#N)ccc3OC[C@H]1O2,2.8,3.5,11.6,-2.4,i
C[C@@H]1CN([C@@H](C)CO)C(=O)c2cc(NC(=O)Nc3ccc(C(F)(F)F)cc3)ccc2O[C@@H]1CN(C)Cc1ccccc1,3.8,-44.4,-57.2,0.3,i
CNC(=O)C1CC(=O)N(c2ccc(OCC(=O)Nc3ccccc3)cc2)C1 (centres undefined),-2.8,6.0,10.3,-1.7,i
CO[C@@H](CN(C)C(=O)c1ccc2c(c1)OCO2)[C@H](C)CN([C@@H](C)CO)S(=O)(=O)c1ccc(C)cc1,-1.8,0.4,13.2,-3.7,i

# Sorted by count of non-hydrogen atoms (highest first): some entries from above.
SMILES,AF4-AF9 inh,Ecoli rRNA inh,Ecoli rRNA inh OD600,Ecoli rRNA inh RFP,FGF22 binding
C[C@H]1CN([C@@H](C)CO)C(=O)Cc2cc(NC(=O)CCCCCC(=O)Nc3ccccc3N)ccc2O[C@H]1CN(C)S(=O)(=O)c1ccc(F)cc1,0.4,-1.4,-1.9,1.2,i
C[C@@H]1CN([C@@H](C)CO)C(=O)Cc2cc(NS(=O)(=O)c3cn(C)cn3)ccc2O[C@@H]1CN(C)C(=O)Nc1ccc(F)cc1,-2.5,-1.4,-0.5,-0.2,i
C[C@H]1CN([C@@H](C)CO)C(=O)c2cccc(NC(=O)Nc3ccc(F)cc3)c2O[C@@H]1CN(C)Cc1ccncc1,-0.1,-4.2,-6.9,0.1,i

# (further entries)
SMILES,AF4-AF9 inh,Ecoli rRNA inh,Ecoli rRNA inh OD600,Ecoli rRNA inh RFP,FGF22 binding
Cc1ccc2ccccc2c1C(O)c1ncc(-c2ccc(C(F)(F)F)cc2)[nH]1 (centres undefined),-0.6,-59.1,-76.7,-11.4,i
CC(C)C[C@H]1CNC(=S)N1C[C@H]1CCCN1C[C@H](CC(C)C)N1C[C@H](Cc2ccc(O)cc2)N(CCc2ccccc2)C1=S,4.7,3.4,-6.0,2.3,i
O=C(C[C@@H]1C=C[C@H](NC(=O)C2CC2)[C@@H](CO)O1)NCc1ccccc1Cl,-0.8,1.2,-5.5,-1.6,i
COc1cccc(C#Cc2cnc3c(c2)C(=O)N([C@H](C)CO)C[C@H](C)[C@@H](CN(C)C(C)=O)O3)c1,-1.7,-2.4,-3.1,-2.8,i
CC(=O)Nc1ccc2c(c1)C(=O)N(C)[C@H]1CC[C@H](CC(=O)NCc3ccc(F)cc3)O[C@H]1CO2,-2.2,3.5,8.4,-0.1,i
CCCCC(=O)N(C)c1c(CC)nc2c(OCC(=O)N3CCOCC3)cccn12,-14.4,7.3,10.6,2.8,i
C[C@H](CO)N1C[C@H](C)[C@@H](CN(C)C(=O)c2ccccc2)Oc2ncc(C3=CCCC3)cc2C1=O,-2.8,-4.2,-9.1,0.4,i
CC(C)C#Cc1ccc2c(c1)O[C@@H](CN(C)C(=O)NC(C)C)[C@H](C)CN([C@H](C)CO)S2(=O)=O,-3.1,0.9,9.7,-3.6,i
CN1[C@H](C(=O)NC2Cc3ccccc3C2)[C@@H](CO)[C@@H]2Cn3c(ccc(C4=CCCC4)c3=O)[C@@H]21,-0.1,-6.2,-12.1,2.1,i
O=C(Cc1ccncc1)NCC[C@@H]1CC[C@H](NC(=O)Nc2ccc(Cl)cc2)[C@H](CO)O1,0.1,0.4,-7.7,-0.6,i
Cc1ccc(-c2csc(C(C)(O)c3ccc(F)c(F)c3)n2)cc1C (centres undefined),-3.0,-50.2,-69.2,-8.6,i
CCCC(=O)Nc1ccc2c(c1)OC[C@H](C)N(C(=O)c1ccncc1)C[C@@H](C)[C@H](OC)CN(C)C2=O,-1.1,1.2,-2.4,-0.8,i
C[C@@H]1CN([C@H](C)CO)C(=O)c2cccc(NC(=O)Nc3cccc4ccccc34)c2O[C@H]1CN(C)S(=O)(=O)c1ccccc1,0.2,-1.3,-4.0,1.4,i
C[C@@H]1CCCCO[C@H](CN(C)C(=O)CCC(F)(F)F)[C@H](C)CN([C@H](C)CO)C(=O)c2cc(NC(=O)C3CCCCC3)ccc2O1,-0.1,-1.3,-8.4,-0.4,i
C[C@@H]1CN([C@H](C)CO)C(=O)c2cc(-c3ccccc3)cnc2O[C@@H]1CN(C)C(=O)c1ccccc1F,-2.0,-0.5,-1.0,-3.5,i
Cc1cc(C(O)c2ncc(-c3cccc(F)c3)[nH]2)ccc1F (centres undefined),6.4,14.4,-21.1,-0.3,i
CC(C)C#Cc1ccc([C@@H]2[C@H]3CN(S(=O)(=O)c4ccccc4)CC(=O)N3[C@H]2CO)cc1,1.5,-4.1,11.7,-1.9,i
CO[C@@H]1CN(C)C(=O)c2cc(NC(=O)C3CCCCC3)ccc2OC[C@@H](C)N(Cc2cccnc2)C[C@@H]1C,1.0,-5.9,1.8,-2.6,i
O=C(O)c1ccc(Cl)c(NC(=O)C2CCN(S(=O)(=O)c3ccc4c(c3)OCCO4)CC2)c1,3.1,-0.9,7.4,0.0,i
C[C@@H]1CN([C@H](C)CO)C(=O)c2cc(C#Cc3ccccc3F)cnc2O[C@@H]1CN(C)C(=O)c1ccc2c(c1)OCO2,0.1,0.2,-10.3,4.6,i
CN1C(=O)c2cc(NC(=O)Cc3cccs3)ccc2OC[C@H]2O[C@@H](CC(=O)NCCCN3CCOCC3)CC[C@@H]21,-4.2,3.5,0.3,-2.7,i
Cc1noc(C)c1NC(=O)Nc1ccc2c(c1)CC(=O)N([C@@H](C)CO)C[C@H](C)[C@H](CN(C)S(=O)(=O)c1ccc(Cl)cc1)O2,-1.9,0.8,-12.5,2.7,i
COc1ccccc1S(=O)(=O)N[C@H]1CC[C@H](CCNC(=O)C2CCC2)O[C@H]1CO,-13.5,-1.8,-2.5,-4.1,i
CC(C)c1cn(CC[C@@H]2CC[C@H](N)[C@@H](CO)O2)nn1,-9.3,-1.2,7.2,-0.1,i

# These rows are one share of the data. The share of hits here may be higher or lower than overall.
